Vaccinia inh = Vaccinia orthopox stage-specific inhibition; Vaccinia-infected cells, mCherry/Venus stage reporter fluorescence; stronger effect = lower value; some inactives read as strong as hits; activity change (mCherry), % (test concentration not listed); hit rate 0.01% among 89,000;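 active = mCherry past -33% and 40 or more points under the early reporter, replicates agreeing; inconclusive = past -33% without that gap or agreement; tested in A549 cells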;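 note: scaled between vehicle wells and reference inhibitor wells; 23 nL library stock went into each well; one replicate is shown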
Vaccinia inh Venus = also measured in Vaccinia inh; calls as there; activity change (Venus), %; measured here: Venus reporter, other viral stage;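 negative = less Venus signal; first of two replicates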
* hit, by the source's call; ? = inconclusive; nt = not tested or not shown; & = joins results of further samples. This is a subset; count on the stated rates, not on these rows.

SMILES | Vaccinia inh | Vaccinia inh Venus
C[C@@H]1CN([C@@H](C)CO)C(=O)c2cc(C#C[C@@H](C)O)cnc2O[C@H]1CN(C)C(=O)Nc1ccc(F)cc1 | 16.2 | 9.8
CC(C)C#Cc1ccc([C@H]2[C@@H](CO)N(C(=O)C3CCOCC3)[C@H]2C#N)cc1 | 5.6 | 9.4
CC(=O)N(C)C[C@H]1Oc2cc(C#CC3CCCC3)ccc2S(=O)(=O)N([C@H](C)CO)C[C@H]1C | -20.5 | -24.3
C[C@H]1CN([C@@H](C)CO)S(=O)(=O)c2ccc(C#Cc3ccc(F)cc3)cc2O[C@@H]1CN(C)C(=O)NC1CCCCC1 | ? | nt
C[C@@H]1CN([C@H](C)CO)C(=O)Cc2cc(NC(=O)CCC(F)(F)F)ccc2O[C@H]1CN(C)S(=O)(=O)c1ccc(F)cc1 | 1.0 | -1.2
COc1ccccc1CNC(=O)C[C@@H]1CC[C@@H](NC(=O)CC2CC2)[C@H](CO)O1 | -7.5 | -5.7
O=C(Nc1ccccc1)C1=C[C@H](c2ccc3c(c2)OCO3)C[C@H](OCc2ccc(CO)cc2)O1 | 14.8&12.4 | 15.4&19.1
C[C@H]1CCCCO[C@@H](CN(C)C(=O)Nc2ccc3c(c2)OCO3)[C@@H](C)CN([C@@H](C)CO)C(=O)c2cc(NS(=O)(=O)c3cccs3)ccc2O1 | -16.5 | -11.9
C[C@H](CO)N1C[C@H](C)[C@H](CN(C)Cc2ccc3c(c2)OCO3)Oc2ncc(C#Cc3ccccc3)cc2C1=O | ? | nt
C[C@@H]1CCCCO[C@@H](CN(C)C)[C@H](C)CN([C@H](C)CO)C(=O)c2cc(NS(=O)(=O)c3ccc(Cl)cc3)ccc2O1 | -11.4 | -3.0
COCC#Cc1ccc2c(c1)O[C@H](CN(C)CC1CCOCC1)[C@@H](C)CN([C@@H](C)CO)S2(=O)=O | 15.6 | 5.4
O=C(C[C@@H]1CC[C@H]2[C@@H](COC[C@H](O)CN2C(=O)c2ccccc2F)O1)NCc1ccc(Cl)c(Cl)c1 | -15.5 | 3.7
COc1cccc(S(=O)(=O)N[C@H]2CC[C@H](CC(=O)NCc3ccccc3)O[C@H]2CO)c1 | -0.9 | -2.1
CCC(=O)N1CCC2(CC1)CN[C@H](CO)c1c2c2ccc(OC)cc2n1C | 5.1 | 2.0
COc1ccccc1S(=O)(=O)N(C)C[C@H]1Oc2ncc(-c3ccc(C)cc3)cc2C(=O)N([C@H](C)CO)C[C@H]1C | 11.9 | 12.3
N#C[C@@H]1[C@H](c2ccc(C3=CCCC3)cc2)[C@H](CO)N1C(=O)c1ccccn1 | 14.5 | 5.6
CO[C@H]1CN(C)C(=O)c2ccc(NC(=O)Nc3cccc(Cl)c3)cc2OC[C@H](C)N(C(=O)Nc2c(C)noc2C)C[C@H]1C | -29.5 | -14.7
Cc1ccccc1-c1ccc2c(c1)O[C@@H](CN(C)Cc1ccc(C(=O)O)cc1)[C@@H](C)CN([C@H](C)CO)S2(=O)=O | 11.3&13.4 | -2.9&9.2
C[C@@H]1CN([C@H](C)CO)C(=O)Cc2cc(NC(=O)C3CC3)ccc2O[C@H]1CN(C)Cc1ccc(-c2ccccc2)cc1 | ? | nt
CCC(=O)N[C@H]1CC[C@@H](CC(=O)NCCN2CCCCC2)O[C@@H]1CO | -1.1 | -0.1
O=C(C[C@H]1C=C[C@@H](NC(=O)Nc2cccc(F)c2)[C@@H](CO)O1)NCC1CC1 | 12.2 | 8.3
COCC(=O)Nc1ccc2c(c1)C(=O)N(C)C[C@H](OC)[C@H](C)CN(C(=O)NC(C)C)[C@H](C)CO2 | -4.8 | 3.8
COC(=O)C[C@@H]1CC[C@@H]2[C@H](COc3ccc(NC(=O)Nc4cccc(C)c4)cc3C(=O)N2C)O1 | 10.2 | 4.4
CCNC(=O)C[C@@H]1CC[C@@H](NC(=O)C2CCC2)[C@@H](CO)O1 | 2.0 | 6.7
COc1cccc(C(=O)Nc2ccc3c(c2)C(=O)N(C)C[C@H](OC)[C@H](C)CN(CC2CC2)[C@H](C)CO3)c1 | -2.3 | -8.5
CCCN1[C@@H]2c3ccc(-c4ccccc4)c(=O)n3C[C@@H]2[C@@H](CO)[C@@H]1C(=O)N1CCOCC1 | 10.0 | 9.8
O=C(c1cccnc1)N1CC2(C1)[C@@H](c1ccccc1)[C@@H](CO)N2C(=O)C1CCC1 | 9.0 | 9.2
Cn1cnc(S(=O)(=O)N2CCCCN3[C@H](CO)[C@@H](c4ccc(C#CC5CCCC5)cc4)[C@H]3C2)c1 | -15.4 | -24.3
C[C@@H]1CN([C@@H](C)CO)C(=O)c2cccc(NC(=O)C3CCCCC3)c2O[C@H]1CN(C)S(C)(=O)=O | 0.4 | 4.1
COc1ccc(S(=O)(=O)N(C)C[C@H]2OCCCC[C@H](C)Oc3ccc(NC(=O)CCC(F)(F)F)cc3C(=O)N([C@H](C)CO)C[C@@H]2C)cc1 | 16.5 | 1.4
C[C@H]1CN([C@@H](C)CO)C(=O)c2cccc(NS(=O)(=O)c3cn(C)cn3)c2O[C@@H]1CN(C)C(=O)Nc1ccc(C(F)(F)F)cc1 | 9.5 | 7.0
CCC(=O)N1[C@H](CO)[C@@H](c2ccccc2)C12CN(C(=O)Cc1ccccc1)C2 | 1.6 | 8.2
COc1ccc(CN(C)C[C@H]2OCCCC[C@@H](C)Oc3ccc(NS(=O)(=O)c4ccc(C)cc4)cc3C(=O)N([C@H](C)CO)C[C@@H]2C)cc1 | 13.9 | -3.1
COCC(=O)N(C)C[C@@H]1Oc2cc(-c3cncnc3)ccc2S(=O)(=O)N([C@@H](C)CO)C[C@@H]1C | 5.1 | 7.4
CCCC#Cc1ccc2c(c1)O[C@@H](CN(C)Cc1ccncc1)[C@@H](C)CN([C@@H](C)CO)S2(=O)=O | ? | nt
C[C@H](CO)N1C[C@H](C)[C@@H](CN(C)C(=O)CC2CC2)Oc2cc(C#CCN(C)C)ccc2S1(=O)=O | 1.2 | 3.3
CCC(=O)N1C[C@H](C)[C@@H](OC)CN(C)C(=O)c2cc(NC(=O)COC)ccc2OC[C@@H]1C | 13.6 | 5.2
CC(C)NC(=O)N[C@@H]1C=C[C@@H](CC(=O)NCCCN(C)C)O[C@H]1CO | -0.1 | 7.3
C[C@@H]1CN([C@@H](C)CO)C(=O)c2cc(-c3cccnc3)cnc2O[C@@H]1CN(C)S(C)(=O)=O | 12.2 | 8.9
C[C@@H]1CN([C@@H](C)CO)C(=O)c2cc(Br)cnc2O[C@@H]1CN(C)Cc1ccccc1 | 11.4 | 7.9
CC(=O)N1CC2(C1)[C@H](c1ccc(-c3ccc(C#N)cc3)cc1)[C@H](CO)N2C(=O)C1CC1 | 11.2 | 9.3
C[C@@H]1CN([C@@H](C)CO)C(=O)c2cc(C#CCN(C)C)cnc2O[C@H]1CN(C)Cc1cccc(F)c1 | 4.8 | 18.1
CC(C)NC(=O)Nc1ccc2c(c1)C(=O)N([C@@H](C)CO)C[C@H](C)[C@@H](CN(C)CC1CCCCC1)OCCCC[C@H](C)O2 | 2.5 | -0.2
C[C@H]1CCCCO[C@@H](CN(C)C(=O)Nc2ccccc2)[C@@H](C)CN([C@@H](C)CO)C(=O)c2cc(NC(=O)c3ccncc3)ccc2O1 | 5.1 | 4.9
Cc1noc(C)c1NC(=O)Nc1ccc2c(c1)C(=O)N([C@H](C)CO)C[C@@H](C)[C@H](CN(C)Cc1ccc(Cl)c(Cl)c1)O2 | -12.0 | -7.8

Single records (already shown). Values in the order: Vaccinia inh, Vaccinia inh Venus
COCC(=O)N(C)C[C@@H]1Oc2cc(-c3cncnc3)ccc2S(=O)(=O)N([C@@H](C)CO)C[C@@H]1C reads 5.1, 7.4
C[C@@H]1CN([C@@H](C)CO)C(=O)c2cc(-c3cccnc3)cnc2O[C@@H]1CN(C)S(C)(=O)=O reads 12.2, 8.9

More entries
SMILES | Vaccinia inh | Vaccinia inh Venus
C[C@@H]1CN([C@@H](C)CO)C(=O)Cc2cc(NC(=O)Nc3cccc4ccccc34)ccc2O[C@@H]1CN(C)Cc1ccncc1 | -7.7 | 0.6
C[C@H]1CN([C@@H](C)CO)C(=O)c2cc(N(C)C)ccc2O[C@@H]1CN(C)C(=O)Nc1ccc2c(c1)OCO2 | 3.2 | -7.7
O=C(c1cccc(F)c1)N1CC(=O)N2[C@H](CO)[C@@H](c3ccc(/C=C/c4ccccc4)cc3)[C@H]2C1 | -30.4 | -24.2
COc1ccc(CNC(=O)C[C@@H]2C=C[C@@H](NC(=O)Nc3ccc4c(c3)OCO4)[C@H](CO)O2)cc1 | -0.2 | -0.3
CCC(=O)N1CCCCN2[C@@H](CO)[C@H](c3ccc(C#Cc4cccnc4)cc3)[C@@H]2C1 | 20.9 | 12.2
COC(=O)C[C@@H]1CC[C@@H]2[C@H](COc3ccc(NC(=O)Nc4cccc(Cl)c4)cc3C(=O)N2C)O1 | 2.2 | -2.1
[N-]=[N+]=Nc1ccccc1C[C@@]1(C(=O)NCc2ccccc2)N=C(c2ccc(OCCCO)cc2)O[C@@H]1c1ccccc1N=[N+]=[N-] | 9.6 | -1.5
O=C(C[C@@H]1CC[C@@H]2[C@H](COC[C@H](O)CN2C(=O)Nc2ccc(C(F)(F)F)cc2)O1)NCC1CC1 | -26.4 | -11.3
COc1ccc(S(=O)(=O)N(C)C[C@H]2Oc3ccc(NS(=O)(=O)c4ccc(F)cc4)cc3C(=O)N([C@@H](C)CO)C[C@@H]2C)cc1 | 16.9 | 3.9
O=C(C[C@@H]1CC[C@@H](NC(=O)C2CCOCC2)[C@H](CO)O1)NCC1CCCCC1 | -1.4 | 6.3
C[C@@H]1CCCCO[C@H](CN(C)S(C)(=O)=O)[C@@H](C)CN([C@@H](C)CO)C(=O)c2cc(N(C)C)ccc2O1 | 4.4 | 9.4
C[C@H](CO)N1C[C@H](C)[C@H](CN(C)Cc2ccccc2)OCc2cnnn2CCCC1=O | 4.8 | 5.6
CO[C@@H]1CN(C)C(=O)c2ccc(NC(C)=O)cc2OC[C@H](C)N(C(=O)C2CCCCC2)C[C@@H]1C | -12.8 | -6.4
COc1ccc(NC(=O)N(C)C[C@@H]2Oc3c(NS(=O)(=O)c4ccc(Cl)cc4)cccc3C(=O)N([C@H](C)CO)C[C@@H]2C)cc1 | -18.8 | -4.5
C[C@@H]1CN([C@@H](C)CO)C(=O)Cc2cc(NC(=O)C3CC3)ccc2O[C@H]1CN(C)Cc1ccc(-c2ccccc2)cc1 | ? | nt
C[C@H]1CN([C@@H](C)CO)C(=O)c2cc(-c3ccncc3)cnc2O[C@@H]1CN(C)Cc1ccc(Oc2ccccc2)cc1 | ? | nt
C[C@H]1CN([C@@H](C)CO)C(=O)Cc2cc(NS(=O)(=O)c3ccc(Cl)cc3)ccc2O[C@@H]1CN(C)S(C)(=O)=O | 6.2 | 7.2
CCNC(=O)C[C@@H]1CC[C@H](NS(=O)(=O)c2ccc(C)cc2)[C@@H](CO)O1 | -7.8 | 13.0
CC(=O)N[C@@H]1CC[C@H](CCNC(=O)Nc2ccc(C(F)(F)F)cc2)O[C@@H]1CO | -0.5 | -0.9
Cc1ccc(S(=O)(=O)N2CC[C@@H]3[C@H]2c2cc(-c4ccc(C#N)cc4)ccc2N(C)[C@H]3CO)cc1 | -3.7 | 3.5
COc1ccc(S(=O)(=O)N[C@@H]2CC[C@@H](CCNC(=O)c3ccccc3F)O[C@H]2CO)cc1 | -3.6 | -1.8
CCCNC(=O)N(C)C[C@H]1Oc2ncc(C#CCC3CCCC3)cc2C(=O)N([C@@H](C)CO)C[C@@H]1C | -5.9 | -11.9
COc1ccc(NC(=O)Nc2cccc3c2O[C@@H](CN(C)S(=O)(=O)c2ccc(Cl)cc2)[C@@H](C)CN([C@@H](C)CO)C3=O)cc1 | ? | nt
CCC(=O)N1[C@H](CO)[C@@H](c2ccc(-c3cccc(F)c3)cc2)[C@@H]1CN(C)C(C)=O | 4.9 | 5.5
C[C@@H](NC(=O)[C@H]1N[C@H]2c3ccc(-c4cccnc4)c(=O)n3C[C@H]2[C@@H]1CO)c1ccccc1 | 26.4 | 8.8
CN1C[C@@H]2[C@H](c3ccccc31)[C@H](CO)N2C(=O)Nc1ccccc1Cl | 10.0 | 11.9
CCCC#Cc1cnc2c(c1)C(=O)N([C@@H](C)CO)C[C@@H](C)[C@H](CN(C)Cc1ccc(F)cc1)O2 | ? | nt
C[C@@H]1CN([C@@H](C)CO)C(=O)c2cccc(NC(=O)CCCCCC(=O)Nc3ccccc3N)c2O[C@@H]1CN(C)Cc1ccncc1 | 13.2 | 5.9
O=C(C[C@@H]1CC[C@H](NC(=O)C2CC2)[C@H](CO)O1)NC1CCC1 | 1.4 | 6.7
CO[C@H]1CN(C)C(=O)c2cc(NS(C)(=O)=O)ccc2OC[C@@H](C)N(C(=O)C2CCC2)C[C@H]1C | 12.7 | 6.1
CNC[C@@H]1Oc2c(NC(=O)NC3CCCCC3)cccc2C(=O)N([C@@H](C)CO)C[C@@H]1C | 18.4 | 10.7
CO[C@@H]1CN(C)C(=O)c2cc(NC(=O)C3CCCC3)ccc2OC[C@@H](C)N(S(=O)(=O)c2ccc(Cl)cc2)C[C@H]1C | ? | nt
O=C(C[C@H]1C[C@H]2c3cc(NC(=O)NC4CCCC4)ccc3O[C@H]2[C@H](CO)O1)NCC1CC1 | -5.4 | -13.6

Part of the list above in order of molar mass, falling:
SMILES | Vaccinia inh | Vaccinia inh Venus
COc1ccc(S(=O)(=O)N(C)C[C@H]2OCCCC[C@H](C)Oc3ccc(NC(=O)CCC(F)(F)F)cc3C(=O)N([C@H](C)CO)C[C@@H]2C)cc1 | 16.5 | 1.4
O=C(c1cccnc1)N1CC2(C1)[C@@H](c1ccccc1)[C@@H](CO)N2C(=O)C1CCC1 | 9.0 | 9.2
CCC(=O)N1[C@H](CO)[C@@H](c2ccccc2)C12CN(C(=O)Cc1ccccc1)C2 | 1.6 | 8.2
CCNC(=O)C[C@@H]1CC[C@H](NS(=O)(=O)c2ccc(C)cc2)[C@@H](CO)O1 | -7.8 | 13.0
CC(C)NC(=O)N[C@@H]1C=C[C@@H](CC(=O)NCCCN(C)C)O[C@H]1CO | -0.1 | 7.3

Screening data (PubChem)
